Screening results: PubChem, ICCB-Longwood Screening Facility, Harvard Medical School
BmaI1 = BmaI1 acyl-homoserine lactone synthase inhibition – biochemical, fluorescence intensity, with counterscreen (AID 720554); 0.4% of 12,000 active; BmaI1 enzyme assay, fluorescence intensity; stronger effect = higher value; test concentration not given here; a few actives read low; strong numbers were not always called active; inhibition, %;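 active = both replicates within 2 robust z-scores of the inhibited control and a quiet counterscreen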;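 also: 0% = uninhibited enzyme and 100% = inhibited control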
BmaI1 counterscreen = recorded beside BmaI1, whose call it bears; inhibition, %; measured here: counterscreen; design of the counterscreen not given here;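 first of two replicates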
An asterisk follows results filed as active. Some of the compounds tested, so the mix of outcomes need not match the whole.

SMILES	BmaI1	BmaI1 counterscreen
CCC(=O)O[C@]1(C(=O)SCF)[C@H](C)C[C@H]2[C@@H]3C[C@H](F)C4=CC(=O)C=C[C@]4(C)[C@@]3(F)[C@@H](O)C[C@@]21C	8	-2
CCc1c2c(nc3ccc(OC(=O)N4CCC(N5CCCCC5)CC4)cc13)-c1cc3c(c(=O)n1C2)COC(=O)[C@]3(O)CC	10	16
COc1ccc(CN2CCN(C(c3ccc(F)cc3)c3ccc(F)cc3)CC2)c(OC)c1OC	6	8
Cc1cccc(C)c1NC(=O)C1CCCCN1C (stereo unspecified)	6	0
COc1ccccc1OCCNCC(O)COc1cccc2[nH]c3ccccc3c12 (stereo unspecified)	10	5

Compounds shown so far that contain nitrogen in an aromatic ring:
SMILES	BmaI1	BmaI1 counterscreen
CCc1c2c(nc3ccc(OC(=O)N4CCC(N5CCCCC5)CC4)cc13)-c1cc3c(c(=O)n1C2)COC(=O)[C@]3(O)CC	10	16
COc1ccccc1OCCNCC(O)COc1cccc2[nH]c3ccccc3c12 (stereo unspecified)	10	5
